Screening data from PubChem.
CapD inh: inhibitors of Bacillus anthracis CapD enzyme; hit rate 0.23% among 140,000; AID 492967; z-score (concentration not given with the values); purified CapD enzyme, fluorescence intensity read-out; active compounds read low; some hits fall short of the stated cut;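 active = z-score under -4 in either of two replicates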;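 note: stock transfer was 100 nL into about 40 µL; score is relative to mean and spread of the plate; one replicate is shown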
AID504770: E. coli YBA685 growth inhibition, screen for V. cholerae RctB inhibitors; E. coli YBA685 rctB-dependent plasmid, OD600 growth, 3 h; active compounds read low; z-score (test concentration not listed); hit rate 0.27% among 130,000; AID 504770;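 active = z-score under -2 on both plates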;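 note: wells of about 30 µL received 100 nL stock; score is relative to mean and SD of the test wells; the first replicate is given; strong numbers were not always called active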
Active calls of the source: *; . = no result given; & = joins results of further samples.

SMILES	CapD inh	AID504770
Cc1ccc(C(C)NC(=O)c2ccc3c(c2)OCO3)cc1C (stereo not drawn)	0.24	0.2
Cc1ccc(-n2c(C)cc(/C=C3\SC(=O)NC3=O)c2C)cc1	.	0.7
O=c1c(-[n+]2ccccc2)cc2[nH]c3ccccc3c2n1-c1ccccc1	7.1	-1.1
c1ccc(Cn2c(CN3CCCC3)nc3ccccc32)cc1	0.57	1.5
COc1ccc(S(=O)(=O)N(C)CCc2c[nH]c3ccccc23)cc1OC	0.01	.
C=CCn1c(SCc2cc(=O)n3ccsc3n2)nnc1C1CCCCC1	.	-0.7
CCOc1ccc(C2C(N3C(=O)c4ccccc4C3=O)C(=O)N2c2ccc(C)cc2)cc1 (stereo not drawn)	-0.12	.
O=C(N/N=C/c1nc2ccccc2[nH]1)c1ccccc1	4.9	-0.1
Cc1ccc(CCNC(=O)C2CCN(S(=O)(=O)N3CCOCC3)CC2)cc1	0.08	-0.6
COc1cc(C(C2=C(O)CC(C)(C)CC2=O)C2C(=O)CC(C)(C)CC2=O)ccc1O (stereo not drawn)	-0.16	.
O=C(O)CCCC(=O)Nc1nc(-c2ccc(F)cc2)cs1	-0.065	0
CCc1nnc(NC(=O)C(C)Sc2ccccc2)s1 (stereo not drawn)	0.1	-0.25
C=C(C)Cn1c(N2CC(C)CC(C)C2)nc2c1c(=O)n(C)c(=O)n2C (stereo not drawn)	.	0.3
CCOC(=O)c1csc(-c2snnc2C)n1	-0.67	1.6
O=C(Nc1ccc2c(c1)nc1n2CCN(Cc2ccccc2)C1)c1ccccc1	1.2	0.75
CCCOc1ccc(OCCSc2nc3ccccc3n2CCO)cc1	-0.14	.
COc1ccc2c(c1)CCc1c(C(=O)N3CCCC3)noc1-2	0.14	-1.4
CCN(CC)S(=O)(=O)c1cccc(C(=O)OCc2nc3ccccc3s2)c1	.	-0.8
COCc1c(C(N)=O)nnn1-c1nonc1N	-0.58	1
CCN(CC)C(=S)SC1=C(Cl)CS(=O)(=O)C1	0.53	-0.15

Rewritten as labelled records: part of the list above
Cc1ccc(-n2c(C)cc(/C=C3\SC(=O)NC3=O)c2C)cc1
- CapD inh: .
- AID504770: 0.7

O=c1c(-[n+]2ccccc2)cc2[nH]c3ccccc3c2n1-c1ccccc1
- CapD inh: 7.1
- AID504770: -1.1

c1ccc(Cn2c(CN3CCCC3)nc3ccccc32)cc1
- CapD inh: 0.57
- AID504770: 1.5

COc1ccc(S(=O)(=O)N(C)CCc2c[nH]c3ccccc23)cc1OC
- CapD inh: 0.01
- AID504770: .

More structures.
SMILES	CapD inh	AID504770
CC1=C(C(=O)N2CCCCC2)C(c2ccccc2F)C2=C(CC(C)(C)CC2=O)N1 (stereo not drawn)	26	1.1
O=C(Nc1ncnc2sc3c(c12)CCCCC3)c1ccc(F)cc1	-0.18	-0.45
O=C1C=CC(=O)N1Cc1ccc(Cl)cc1	-0.91	-1.5
COc1ccc(-c2nnc(SCC(=O)NC3CCCc4ccccc43)o2)cc1OC (stereo not drawn)	.	-0.15
N=C(N)N1CCOCC1	0	0.8
CCOC(=O)c1c(NC(=O)C(C)Sc2nnc(CNC(=O)c3cccs3)n2C2CCCCC2)sc2c1CCCC2 (stereo not drawn)	-0.21	.
O=C(Nc1ccc(Cl)c(Cl)c1)/C(=C\c1ccc2c(c1)OCO2)NC(=O)c1ccccc1Br	12	.
CCOC(=O)Cc1csc(NC(=O)Nc2cccs2)n1	1	-1.6
O=C1OC2(CCCCC2)OC(=O)C1=Cc1ccc(-c2ccc(C(=O)O)cc2)o1	13	0
Cc1nc(C(F)(F)F)ccc1C(=O)N1CCN(c2nc3ccc(Cl)cc3s2)CC1	-0.015	-1.7
COc1ccc(C2=NN(C(=O)c3ccc(Br)o3)C(c3ccc(C)cc3)C2)cc1OC (stereo not drawn)	0.55	.
CC(=O)Nc1ccc(-n2c(/C=C\c3ccc(F)c(F)c3)nc3ccccc3c2=O)cc1	-0.76	.
O=c1c2ccccc2n2cnnc2n1-c1ccccc1	-0.23	-0.5
COc1ccc(/C=C2\C(=O)NC(=O)N(c3ccc(Br)cc3)C2=O)cc1	-1.6	.
Cc1cc2c(c(=O)n1Cc1ccccn1)C(c1ccccc1)C(C#N)=C(N)O2 (stereo not drawn)	-0.12	1.4
Cc1cc(=O)[nH]c2cc(-c3ccccc3)nn12	1.3	-0.1
COc1cc2c(cc1OC)C(c1ccccc1)=NCC2	-0.76	.
O=C(OCCN1CCN(Cc2ccc(OC(F)(F)F)cc2)CC1)N1CCN(c2cccc3[nH]ccc23)CC1	0.43	.
CC(C)=CCCC1=NN(C=O)C(C)(CCC=C(C)C)C1 (stereo not drawn)	.	-0.35
Cc1cc(C)cc(NC(=O)CC(C(=O)O)N(C)C)c1 (stereo not drawn)	-0.38	0.95

The last 3 compounds of the section before come first, to join the parts:
SMILES	CapD inh	AID504770
O=C(OCCN1CCN(Cc2ccc(OC(F)(F)F)cc2)CC1)N1CCN(c2cccc3[nH]ccc23)CC1	0.43	.
CC(C)=CCCC1=NN(C=O)C(C)(CCC=C(C)C)C1 (stereo not drawn)	.	-0.35
Cc1cc(C)cc(NC(=O)CC(C(=O)O)N(C)C)c1 (stereo not drawn)	-0.38	0.95
CS/C(=C\C(=O)c1ccccc1)Nc1ccccc1Cl	-1.6	1.5
S=C(NCCN1CCOCC1)NCc1ccc2c(c1)OCO2	.	0.25
O=C(Sc1ccccc1)c1cccc(=O)o1	-1.8	0.15
CN(C(=O)C1CCCCC1)c1nc(-c2ccc(Cl)s2)cs1	-0.22	0.35
CN(C)/C=N/c1ncc(-c2ccc(Br)s2)s1	-1.3	1.2
CSc1nc(N/C=C2/C(=O)c3ccccc3N(C)S2(=O)=O)nc(C2CC2)n1	0.38	0.05
Cc1ccc(/C(C#N)=C/c2ccc3c(c2)OCO3)cc1	1.8	.
O=C(Nc1cccc(-c2nc3ccccc3o2)c1)c1ccc(Br)cc1	1.7	0.05
CCCCCCCCOc1ccc(-n2c(-c3ccc(Cl)cc3)cn3c4c(=O)n(C)c(=O)n(C)c4nc23)cc1	-0.39	.
CNC(=O)CN1C(=O)c2ccccc2S1(=O)=O	0.075	0.5
COc1cc(C(=O)Nc2ccc(S(=O)(=O)NC(C)C)cc2)cc(OC)c1OC	1.2	-0.7
CCc1ccc(Oc2coc3cc(OC(C)C(=O)OC(C)C)ccc3c2=O)cc1 (stereo not drawn)	-0.54	0.35
Cc1ccc(S(=O)(=O)NCc2ccccc2-n2c(C)ccc2C)cc1	0.28	.
O=C1OC(c2nn3c(-c4ccco4)nnc3s2)Cc2ccccc21 (stereo not drawn)	.	-0.8
CCc1nc(C)cc(N)c1OCc1ccccc1	-0.74	-1.1
Cc1sc2c(c1C)c(=O)n(-c1ccccc1)c1nnc(SCC(=O)c3ccccc3)n21	-0.93	.
COC(=O)CNC(=O)C(Cc1c[nH]c2ccccc12)NC(=O)OCc1ccccc1 (stereo not drawn)	0.15	.
C=CCNC(=O)C1=CC(c2ccc(OC)cc2)=NS(=O)(=O)N1C	-1.6	1.2
Fc1ccc2c(c1)[C@H]1OCC[C@H]1[C@@H](c1ccco1)N2	8	-0.7
N#Cc1ccccc1N=C/C(Br)=C/c1ccccc1	16	-0.35

Reprinted from the part before: 3 compounds, then new ones.
SMILES	CapD inh	AID504770
C=CCNC(=O)C1=CC(c2ccc(OC)cc2)=NS(=O)(=O)N1C	-1.6	1.2
Fc1ccc2c(c1)[C@H]1OCC[C@H]1[C@@H](c1ccco1)N2	8	-0.7
N#Cc1ccccc1N=C/C(Br)=C/c1ccccc1	16	-0.35
O=C(/C=C/c1ccc(F)cc1)NC(=S)NN1CCOCC1	0.49	0.15
Cc1ccc(S(=O)(=O)Nc2ccc3c(c2)COC3=O)c(C)c1	0.24	-0.7
CN(CC(N)=O)S(=O)(=O)c1ccc(F)cc1	-0.06	-0.6
Cc1ccc(S(=O)(=O)CC(=O)c2ccccc2)cc1	0.19	0.75
C=C1C(C(=O)Nc2ccccc2N2CCOCC2)C1C(=O)Nc1ccccc1N1CCOCC1 (stereo not drawn)	.	0.25
CCSc1n[nH]c(-c2c(Cl)c(CC)nn2C)n1	0.03	-0.35
O=C(NCCOc1ccc(Cl)cc1)c1ccco1	-0.73	-0.6
O=C(O)c1cc(-c2ccc(O)c(O)c2)nc2n[nH]c(-c3ccc(F)cc3)c12	-2.4	-1.1
O=C(C(NS(=O)(=O)c1cccs1)c1ccccc1)N1CCN(c2cccc(Cl)c2)CC1 (stereo not drawn)	0.87	0.35
CCN(CC)CC(O)COc1ccc2c(c1)OCO2 (stereo not drawn)	.	1.5
O=C(CC(=O)Nc1ccc(Cl)cn1)Nc1ccc(Cl)c(Cl)c1	-0.28	.
CCOP(C)(=O)CN1CCOCC1 (stereo not drawn)	-0.37	-0.25
CS(=O)(=O)CS(=O)(=O)Oc1cccc(C(F)(F)F)c1	0.84	.
CCCCn1c(NC(=O)c2ccccc2)c(C#N)c2nc3ccccc3nc21	.	-1.1
N#Cc1cc2c(=O)n3ccccc3nc2n(Cc2ccccc2)c1=O	3.7	2
CCC(C)n1nccc1NC(=O)C(C)OC(=O)c1cc2ccccc2[nH]1 (stereo not drawn)	.	-0.3
O=C(O)c1cccnc1OCc1ccccc1	0.3	-0.65
CCOC(=O)c1ccc(NC(=O)COc2ccccc2F)cc1	-0.18	0.8
Cc1cccc(Oc2cc(NC(=O)c3sc4ccccc4c3Cl)cc([N+](=O)[O-])c2)c1	-1.1	.
O=c1c2c([nH]c3ccccc13)CCCCC2	.	-0.55
CN(c1ccccc1)S(=O)(=O)c1ccc(C(=O)Nc2nnc(C(F)(F)F)o2)cc1	.	0.7
C/C(=N/O)c1ccc(Br)cc1	0.15	0.45
NC(=O)C1CCN(c2c3c(nc4nncn24)CCC3)CC1	-0.45	-0.15
O=S(=O)(Nc1cccnc1)c1ccc(C2CCCCC2)cc1	.	0.3
CN(C)/C=C(\C#N)Sc1nnc(-n2cccc2)s1	-0.28	.
Cc1cc(=O)n2nc(N3CCCC(C(=O)NC4CCN(Cc5ccccc5)CC4)C3)sc2n1 (stereo not drawn)	-0.26	-0.55
CC1CN(Cc2c(O)ccc3c2oc(=O)c2ccccc23)CC(C)O1 (stereo not drawn)	-0.49	1.5
O=C1C2C3C=CC(C3)C2C(=O)N1CCN1CCCC1 (stereo not drawn)	.	1.6
S=C(c1ccc(Cl)cc1)N1CCOCC1	-0.16	.
CCOC(=O)c1noc2c1CCc1sccc1-2	0.23	-0.9
CCOC(=O)N1CCC(N2C(=O)c3ccc(C(=O)NC4CCCCCC4)cc3C2=O)CC1	-0.4	-0.45
CC(C)(C)N(Cc1ccccc1)C(=O)CSc1nnc(CNc2ccc(F)cc2)o1	.	-0.65
CC(=O)N1CC(C)Oc2ccc(S(=O)(=O)Nc3ccc(OC(F)(F)F)cc3)cc21 (stereo not drawn)	0.1	-0.35
CC1=C(C(=O)Nc2ccc(C)cc2)C(c2cccnc2)n2ncnc2N1 (stereo not drawn)	-0.4	.
Cc1nnc(SCc2nc3ccccc3c(=O)[nH]2)n1C1CC1	.	-0.05
Cc1ccc(C)n1-c1sc2c(c1C(=O)NN)CCCC2	-0.34	.
Cc1cc(Br)ccc1OCC(=O)O	0.2	-1.2
Cc1csc2nc(CSc3nc4cc([N+](=O)[O-])ccc4s3)c(Br)n12	-0.55	.
COC(=O)c1cc(C(=O)c2ccc(Cl)cc2Cl)cn1C	-0.41	1.5
CCOc1cccc2c1OC1(CCCCC1)N1N=C(c3cccs3)CC21 (stereo not drawn)	0.7	.
NNC(=O)c1cncc(C#Cc2ccccc2)c1	0.85	-0.35
Cc1cc(C(=O)NCc2cccnc2)no1	-0.35	-0.35
CCN(CC)S(=O)(=O)c1ccc(N=Nc2c(O)[nH]c(=S)[nH]c2=O)cc1	-1.2	1.1
COc1ccc(CNC(=O)c2cc(-c3ccccc3)n[nH]2)cc1	-2.1	-0.4
O=[N+]([O-])c1ccc(C(O)C(O)CO)cc1 (stereo not drawn)	0.38	.
CS(=O)(=O)N1Cc2ccccc2CC1C(=O)OCC(=O)c1ccc(Br)s1 (stereo not drawn)	.	1.9
CN(CCNC(=O)Cn1ncc2c1-c1ccccc1OC2)C1CCCCC1	0.31	-0.85
CCN(CCCNc1nnc2c3ccccc3n(C)c2n1)c1cccc(C)c1	0.03	-0.9
O=C(/C=C/c1ccc(F)cc1)Oc1cc(Cl)c[nH]c1=O	.	0.2
COc1ccc(-c2cc(C(=O)NCCc3ccccc3)c3ccccc3n2)cc1	0.5	-0.2
C=CCON1C(=O)CN(C(=O)Nc2ccccc2)C1c1ccccc1 (stereo not drawn)	-0.28	1.1
O=C(O)CCCN1CC=C(c2ccccc2)CC1	0.4	-0.25
Cc1c(O)ccc2c(-c3ccccc3)cc(=O)oc12	-0.15&0.84	0.25&0.05
C=CCn1c(SCC(=O)Nc2cc(C(=O)OC)cc(C(=O)OC)c2)nc2sc(C)c(C)c2c1=O	-0.34	.
Cc1ccc(-c2c[n+](-c3c4n(n(-c5ccccc5)c3=O)CCCCC4)c(C)n2C)cc1	0.025	-0.95
COc1ccc(-n2c(=O)c3ccccc3n(CC(=O)NC3CCCC3)c2=O)cc1	0.2	0.55
CCOC(=O)c1cc2c(nc1C)-c1ccccc1C2=Nc1cccc2ccccc12	-0.3	.
O=C(Cn1nnc(-c2ccc(F)cc2)n1)NCCN1C(=O)CSC1=O	.	-0.55
CCc1ccc(NC(=O)CSC2=NN3CCCC(=O)N=C3S2)cc1	-0.32	-1
CC(C)CSc1nc2cc3c(cc2c(=O)n1Cc1ccco1)OCO3	-0.94	2
COCCN(C1CCN(S(=O)(=O)c2ccccc2)CC1)S(=O)(=O)c1ccccc1	-0.085	.
Cc1cc(C(=O)CSc2ccccn2)c(C)n1Cc1cccs1	.	1.7

2 entries drawn at random from the list so far:
SMILES	CapD inh	AID504770
COCCN(C1CCN(S(=O)(=O)c2ccccc2)CC1)S(=O)(=O)c1ccccc1	-0.085	.
C=CCON1C(=O)CN(C(=O)Nc2ccccc2)C1c1ccccc1 (stereo not drawn)	-0.28	1.1
